Screening results from PubChem BioAssay.
PABP FP inh – PABP-poly(A) binding inhibition | inhibition, % at 35 µM | PABP-poly(A) RNA binding, fluorescence polarization | hit rate 1% among 290,000;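 active = 50% or more with normal probe brightness, or confirmed in later tests; about a fifth of its hits are not listed in these tables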;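 note: calls also rest on retests at 20 µM and on dose response follow-up; controls were probe without protein and protein plus probe with vehicle; some compounds called inactive have numbers as strong as hits; many hits fall short of the cut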
eIF4H inh – inhibitors of RNA binding by human eIF4H; Q15056; eIF4H fluorescence polarization binding assay; inhibition, % at 35 µM; hit rate 0.94% among 290,000;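 active = 50% or more with normal probe brightness, or confirmed in later tests; about a fifth of its hits are not listed in these tables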;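 note: calls also rest on retests at 20 µM and on dose response follow-up; 0% = protein and probe with vehicle and 100% = probe without protein; strong numbers were not always called active; many hits fall short of the cut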
Rce1 inhib – inhibitors of yeast Ras-converting enzyme; Q03530; hit rate 0.27% among 290,000; calls only; yeast membranes, quenched prenylated peptide cleavage fluorescence;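 active = fall in fluorescence gain of 50% or more versus controls, with final raw signal at or below 3038400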;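 note: plate controls were neutral control wells for no effect and wells lacking membranes for full effect; tested at 10 µM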
Target sequence (Q03530 whole entry, looked up): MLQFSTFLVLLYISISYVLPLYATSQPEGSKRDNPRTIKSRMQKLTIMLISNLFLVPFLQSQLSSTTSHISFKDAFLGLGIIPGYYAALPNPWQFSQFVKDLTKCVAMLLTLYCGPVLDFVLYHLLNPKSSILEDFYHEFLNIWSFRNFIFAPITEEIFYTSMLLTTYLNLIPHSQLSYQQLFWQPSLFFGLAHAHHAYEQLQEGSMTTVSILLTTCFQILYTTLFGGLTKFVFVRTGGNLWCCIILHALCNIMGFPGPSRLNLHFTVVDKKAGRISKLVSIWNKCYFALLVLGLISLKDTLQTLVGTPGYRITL
MT1-MMP act inh – blocks activation of human MT1-MMP; HT1080 RFP-PRO-GFP cells, GFP/RFP ratio fluorescence, overnight; percent of plate control window, DMSO zero; GFP/RFP ratio change, % at 20 µM; hit rate 0.061% among 360,000; AID 651647;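 active = GFP/RFP ratio change of at least 30% with cell ATP level not reduced by more than half and red fluorescence within 50% of control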; note: strong numbers were not always called active
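Assay system – RFP-PRO-GFP reporter HT1080 cells · Compound dosing – single dose of 20 µM compound, 1% DMSO final · Incubation – overnight compound exposure at 37 °C · Measure – GFP/RFP fluorescence ratio · Benchmarks – DMSO wells and RFP-L50D-GFP cells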
CSC inhib – cancer stem cell inhibition | hit rate 1.1% among 300,000 | inhibition, % at 7.5 µM | cancer stem cell-like cells viability, luminescence;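 active = mean at 75% or more and at least half the replicates too; tested in HMLE shEcad cells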;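 note: 0% = median of negative and 100% = median of positive control wells; the first replicate is given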
Env fusion inh – inhibitors of HIV Env-mediated cell fusion. hit rate 1.1% among 360,000. HeLa-JRFL Env/CEM21 cell fusion, luciferase. inhibition, % at 12.3 µM;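 active = mean replicate inhibition score of at least 50 and every replicate individually at or above 50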;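 note: 0% = plate neutral controls and 100% = maraviroc near 300 nM; one replicate is shown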
UUG fidelity – alters start codon recognition fidelity in yeast. hit rate 0.13% among 350,000. S. cerevisiae UUG-firefly luciferase reporter, luminescence/redox ratio. activity score, % at 18.7 µM;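 active = replicate mean at a twofold rise or more, about +100% in these data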;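 note: firefly luciferase made from a UUG start codon reports start codon fidelity; reporter light over untreated wells divided by growth signal over untreated wells; some hits fall short of that in this replicate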
eIF4H inh retest – second read-out of eIF4H inh, no call of its own (marks repeat the call); inhibition, %; compound at 20 µM; confirmation average;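 mean of two retest wells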
PABP FP inh retest – also measured in PABP FP inh; calls as there; inhibition, %; compound at 20 µM; confirmation repeats;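 mean of two retest wells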
MT1-MMP act inh RFP – recorded beside MT1-MMP act inh, whose call it bears; RFP signal change, %; measured here: RFP expression control read;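 0 = vehicle wells; hits needed this value within 50% of zero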
The depositor's hits bear a star; i = inactive; . = not tested or not shown; + = active, no number. An excerpt. The share of hits here may be higher or lower than overall.

SMILES	PABP FP inh	eIF4H inh	Rce1 inhib	MT1-MMP act inh	MT1-MMP act inh RFP	CSC inhib	Env fusion inh	UUG fidelity	others
CCc1ccccc1NC(=O)CN(C)C(=O)CSc1nc2cc(Cl)ccc2s1	3	3	i	-2	-1	14	-7	.
NC(=O)c1ccc(NC(=O)COC(=O)C23CC4CC(CC(C4)C2)C3)cc1	.	.	.	-4	6	.	13	-8
CCN1C(=O)[C@H]2[C@@H](c3ccc(-c4ccc(Cl)c(Cl)c4)c(OC)c3)N[C@@](Cc3ccccc3)(C(=O)OC)[C@H]2C1=O	.	.	i	-5	-13	12	-21	-15
COC(=O)C(CC(C)C)NC(=O)CNC(=O)c1ccccc1C (stereo not given)	-7	-10	i	7	8	.	.	9
O=C(NCC1CCN(Cc2ccccc2Cl)CC1)Nc1ccccc1F	6	2	i	0	-6	6	6	-1
Nc1ccc(Oc2ccc3nc(-c4ccccc4)c(-c4ccc([N+](=O)[O-])cc4)nc3c2)cc1	-8	-2	i	-9	-17	70	.	-16
CC1Nc2ncnc(N3CCN(c4ccccc4)CC3)c2N(Cc2ccc(Br)cc2)C1=O (stereo not given)	.	.	i	-5	-3	17	-6	-3
COc1ccc2nc(SC)c(C#N)cc2c1	6	-2	i	1	0	-9	-33	-12
CN(C)S(=O)(=O)c1ccc(S(=O)(=O)NC2CCOC(C)(C)C2)cc1 (stereo not given)	-6	3	i	-2	1	3	.	-21
CCOc1cc(C(C(=O)NCC2CCCO2)N(C(=O)Cn2nnc3ccccc32)c2ccc(OC)c(OC)c2)ccc1O (stereo not given)	-7	0	i	3	13	.	-3	-8

The list goes on; it opens with the 7 that closed the last part.
SMILES	PABP FP inh	eIF4H inh	Rce1 inhib	MT1-MMP act inh	MT1-MMP act inh RFP	CSC inhib	Env fusion inh	UUG fidelity	others
COC(=O)C(CC(C)C)NC(=O)CNC(=O)c1ccccc1C (stereo not given)	-7	-10	i	7	8	.	.	9
O=C(NCC1CCN(Cc2ccccc2Cl)CC1)Nc1ccccc1F	6	2	i	0	-6	6	6	-1
Nc1ccc(Oc2ccc3nc(-c4ccccc4)c(-c4ccc([N+](=O)[O-])cc4)nc3c2)cc1	-8	-2	i	-9	-17	70	.	-16
CC1Nc2ncnc(N3CCN(c4ccccc4)CC3)c2N(Cc2ccc(Br)cc2)C1=O (stereo not given)	.	.	i	-5	-3	17	-6	-3
COc1ccc2nc(SC)c(C#N)cc2c1	6	-2	i	1	0	-9	-33	-12
CN(C)S(=O)(=O)c1ccc(S(=O)(=O)NC2CCOC(C)(C)C2)cc1 (stereo not given)	-6	3	i	-2	1	3	.	-21
CCOc1cc(C(C(=O)NCC2CCCO2)N(C(=O)Cn2nnc3ccccc32)c2ccc(OC)c(OC)c2)ccc1O (stereo not given)	-7	0	i	3	13	.	-3	-8
COc1cnn(-c2ccccc2)c(=O)c1SCc1ccc(Cl)cc1Cl	-4	-3	i	8	8	0	.	-11
COc1cccc(N2CCN(C(c3ccccn3)c3nnnn3C(C)(C)C)CC2)c1 (stereo not given)	-21	-4	.	5	5	.	.	-22
CCc1nc(SCc2ccccn2)[nH]c(=O)c1C	-4	0	i	0	3	-2	1	.
Cc1nn(C(C)(C)C)c(C)c1/C=N/OC(=O)Nc1ccc(Cl)cc1	4	3	i	6	-1	13	28	-90
COc1ccc(Cl)cc1NC(=O)CN1CCC(n2nnc3ccccc32)CC1	1	-6	i	-2	0	2	12	-15
O=C(c1cc(-c2cccs2)nc2ccccc12)N1CCN(c2ccccc2O)CC1	4	-13	i	-4	-6	-2	5	.
CCN(c1ccccc1)S(=O)(=O)c1ccc(F)cc1C	2	-12	.	-2	-1	-15	.	-16
COc1cccc(-c2cn3nc(C)c(C)nc3n2)c1	12	-3	i	0	5	-10	.	-34
CC(C)NC(=O)c1onc(CSc2ccncc2)c1C(=O)NC(C)C	.	.	i	2	3	-4	13	4
CCN(CC)C(=O)c1cccc(-c2ccc(OC)cc2)c1	1	-5	i	1	2	-5	-67	-9
O=C(N/C(=C/c1ccco1)C(=O)N1CCCCCC1)c1cccs1	45*	62	i	-17	-2	6	-15	28	eIF4H inh retest=48;PABP FP inh retest=53*
Cc1nn(Cc2ccc(Cl)cc2Cl)c(Cl)c1/C=N/NC(=O)CNc1cccc(C(F)(F)F)c1	4	10	i	.	.	26	.	.
O=C(CS(=O)(=O)c1ccccc1)Nc1nnc(C(F)(F)F)s1	-11	-3	i	-3	1	1	-4	-8
CC1(C)CC(=O)/C(=C(\O)c2ccccc2)C(=NCCc2ccccc2)C1	2	3	i	5	0	9	.	5
C=CCNC(=O)/C=C/c1ccc(C(C)C)cc1	-10	4	i	1	1	-2	1	.
COc1ccc(NC(=O)CSc2c(C)nn(-c3nnc(C)c(=O)[nH]3)c2C)cc1	-2	-4	i	1	2	5	.	-27
CC(=O)NCCC(=O)Nc1ncc(S(=O)(=O)c2ccc([N+](=O)[O-])cc2)s1	.	.	i	1	-1	3	4	.
CCOC(=O)CC1C(=O)NCCN1C(=O)c1cc2c(=O)n3cccc(C)c3nc2s1 (stereo not given)	7	-7	+	-6	2	-3	28	-2
NS(=O)(=O)c1ccc(CNC(=O)c2ccc3c(c2)OCO3)cc1	.	.	.	-1	3	5	11	7
COc1cc(C)nc(N2CCCC(C(=O)Nc3cc(Cl)ccc3OC)C2)n1 (stereo not given)	-6	-8	i	.	.	-1	.	.
CN(CC(=O)NCCCn1ccnc1)S(=O)(=O)c1ccc(Cl)cc1	.	.	.	-1	-5	20	.	-7
CCc1nc2ccc(C(=O)NCCc3ccccn3)cn2c1N(C)Cc1ccc(N(C)C)cc1	.	.	.	2	5	.	-446	-14
COc1ccc(NC(=O)/C=C/c2ccccc2[N+](=O)[O-])c(OC)c1	-4	6	i	5	2	-2	9	.
COc1ccc(OC)c(NC(=O)C2CCCN2S(=O)(=O)c2ccc3c(c2)CC(C)N3C(C)=O)c1 (stereo not given)	.	.	.	5	4	.	11	-5
Cc1cc(C(C)(C)C)ccc1OCCOCCN1CCCC1	0	-2	i	3	2	54	8	.
NC(=O)c1c(NC(=O)C(=O)N2CCOCC2)sc2c1CCCC2	18	-6	i	2	2	-12	-5	-1
Nc1nnc(CCOc2ccccc2Cl)s1	-4	-3	i	2	2	-11	-51	-22
Clc1ccc(-c2nc3ccc(Cl)cn3c2Cc2cccc(Cl)c2)cc1	.	.	.	-7	-8	.	-31	-30
COc1ccc(NC(=O)CN2CC(c3ccccc3)CC2=O)cc1OC (stereo not given)	-6	-1	i	-5	-2	6	-1	-4
COc1ccc(C2C(C(C)=O)=C(O)C(=O)N2c2ccc(C)cc2)cc1 (stereo not given)	2	-4	i	3	-6	-3	2	-14
C=CCOc1c(Cl)cc(Cl)cc1S(=O)(=O)NCCO	.	.	.	1	1	.	-8	-20
Cc1c(Cl)ccc2c(C(=O)Nc3cc(C(C)(C)C)on3)cc(-c3ccccn3)nc12	-9	4	i	-8	-1	-7	9	-14
OC1CCCCC1	.	.	.	-3	6	-11	.	-6
CS(=O)(=O)c1ccc2sc(NC(=O)c3cc4ccccc4o3)nc2c1	32	-6	i	4	2	-11	-30	-17
Cc1ccccc1C1CC(c2ccccc2)Nc2ncnn21 (stereo not given)	8	0	i	2	1	-8	23	-27
COc1ccc(NC(=S)NNC(=O)C2CC2c2ccc(C)cc2)cc1 (stereo not given)	2	0	i	0	-1	5	.	.
Fc1cccc(-c2n[nH]c(=S)n2-c2ccccc2)c1	-1	-6	i	3	2	0	-131	-15
Cc1ccc(S(=O)(=O)N2CCCCC2)cc1NC(=O)COC(=O)Cc1cccc(C(F)(F)F)c1	-9	-11	i	0	2	-10	17	-15
Cn1c(NC(=O)c2ccccc2)c(-c2ccccn2)c(=O)c2ccccc21	-7	-1	i	-1	3	9	.	-13
C=CCn1c(Sc2nncn2C)nc2c1c(=O)[nH]c(=O)n2C	5	-2	i	3	6	-10	-34	-24

The closing 2 entries of the part before are carried over, then new ones follow.
SMILES	PABP FP inh	eIF4H inh	Rce1 inhib	MT1-MMP act inh	MT1-MMP act inh RFP	CSC inhib	Env fusion inh	UUG fidelity	others
Cn1c(NC(=O)c2ccccc2)c(-c2ccccn2)c(=O)c2ccccc21	-7	-1	i	-1	3	9	.	-13
C=CCn1c(Sc2nncn2C)nc2c1c(=O)[nH]c(=O)n2C	5	-2	i	3	6	-10	-34	-24
COc1ccccc1N1CCN(CCCNc2c(C)c(=O)n(C)c(=O)n2C)CC1	.	.	i	-2	-2	-6	3	-11
CC(=O)Nc1ccc(Nc2nc(-c3sc(C)nc3C)cs2)cc1	3	4	i	3	-17	7	-8	-9
O=C(OCC(=O)N(CCc1ccccc1)Cc1ccccc1)c1ccccc1NCCO	-5	-3	i	1	0	-8	-2	14
COc1cc(/C=N/Nc2nc3ccccc3s2)ccc1OC(=O)c1ccccc1F	-7	0	i	-3	-3	6	-83	.
O=C(Nc1ccc(Br)cc1)C1OCCc2ccccc21 (stereo not given)	1	-3	i	-1	-5	0	-3	.
O=C(O)CCCC(=O)N1CCc2cc(S(=O)(=O)NCc3ccc(F)cc3)ccc21	1	1	i	1	3	-7	8	.
NC(=O)C1CCN(C(=O)C2CCC(=O)N(CC3CCCCC3)C2)CC1 (stereo not given)	7	-5	i	0	6	-2	2	0
CC(C)CNC(=O)c1ccc(NC(=O)c2cccs2)cc1	-11	-5	i	-2	2	-21	3	-24
CC(C)C(CC(=O)N1CCCCC1)C1CCOC(C)(C)C1 (stereo not given)	0	-4	i	5	4	-2	-168	-14
COc1ccc(C(C(=O)NCC2CCCO2)N(Cc2ccc(F)cc2)C(=O)CNC(=O)c2ccco2)cc1OC (stereo not given)	11	-1	i	2	6	-8	-4	-15
COc1ccc(COCC(O)CN2CCc3ccccc3C2)cc1OC (stereo not given)	0	-16	i	-1	1	29	22	.
O=C(NCCN1CCOCC1)c1cc(S(=O)(=O)NCCCN2CCCC2=O)ccc1Cl	2	-8	i	4	5	-19	-13	-14
CCCc1cc(C(=O)Nc2sc(C)c(C)c2C(=O)OCC)no1	4	3	.	3	6	.	7	-16
O=C(NC1CCCCCC1)C1CC(=O)N(c2ccc(Cl)cc2)C1 (stereo not given)	-7	0	i	5	5	-5	-5	-11
CCn1cc(C(=O)Nc2cccc(C(=O)OC)c2)c(=O)c2ccc(C)nc21	47	-7	i	3	5	-14	1	-19
COc1cccc(C(=O)COC(=O)c2n[nH]c(=O)c3ccccc23)c1	-10	2	i	1	3	-33	4	.
COc1ccc(CCN(C)C(=O)COc2ccc(C(=O)c3ccccc3)cc2)cc1OC	.	.	i	1	-4	.	.	-16
